# HPGD inh: blocks human HPGD enzyme activity; P15428; purified HPGD, NADH fluorescence kinetic, PGE2 substrate; Potency, µM, for inactives: at the top dose activity change, negative = inhibition, actives largely listed as inhibitors; 150,000 tested, 4.3% active; AID 894; active = well fitted inhibition curve with a large enough effect (not every such curve was filed as active); inconclusive = small, poorly fitted or top-dose-only effect, or another doubt; inactive = no such curve, though single readings can be large or run the other way;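 also: top concentration of the series not given in the record; plate controls included wells without enzyme; inactives centre near -10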
# Target sequence (P15428 whole entry, looked up): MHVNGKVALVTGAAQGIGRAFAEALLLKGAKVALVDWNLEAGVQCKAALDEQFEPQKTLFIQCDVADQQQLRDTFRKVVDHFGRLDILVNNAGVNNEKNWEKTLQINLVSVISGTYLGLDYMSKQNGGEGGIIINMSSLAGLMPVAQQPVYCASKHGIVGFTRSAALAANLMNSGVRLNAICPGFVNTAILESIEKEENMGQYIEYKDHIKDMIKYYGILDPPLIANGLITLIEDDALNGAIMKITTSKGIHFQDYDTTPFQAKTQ
#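 20 nM HPGD preincubated 15 min at room temperature with compound in 50 mM Tris-HCl pH 8, 0.01% Tween 20. Started with 1 mM NAD+ and 30 uM prostaglandin E2; NADH fluorescence (360/450 nm) read 5 times over 30-s intervals, last minus first.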
# Starred values were filed as active, the others as inactive; ? = inconclusive; & = joins results of further samples. % is scaled to controls: 0 for no effect and ±100 for the full control effect; potency is read from the fitted curve at half-maximal effect. The list is partial (hit frequency here may not be typical).
# Preview:
HPGD inh | Structure
-16.9% | CC(=O)c1coc2c1cc(O)c1ccccc12
-3.5% | COC(=O)Nc1ccc(S(=O)(=O)N2CCCCC2C(=O)NCc2ccco2)cc1 (configuration not stated)
-3.9% | Cc1ccc(C(=O)Nc2ccccc2C(N)=O)o1
-21.4% | FC(F)(F)c1cccc(NCc2cn3cccnc3n2)c1
4.3% | COc1ccc(NC(=O)CSc2nnc(-c3ccccc3)n2Cc2ccco2)cc1OC

# The whole of this part (from the top)
HPGD inh | Structure
-16.9% | CC(=O)c1coc2c1cc(O)c1ccccc12
-3.5% | COC(=O)Nc1ccc(S(=O)(=O)N2CCCCC2C(=O)NCc2ccco2)cc1 (configuration not stated)
-3.9% | Cc1ccc(C(=O)Nc2ccccc2C(N)=O)o1
-21.4% | FC(F)(F)c1cccc(NCc2cn3cccnc3n2)c1
4.3% | COc1ccc(NC(=O)CSc2nnc(-c3ccccc3)n2Cc2ccco2)cc1OC
-17.2% | Nc1ncnc2c1nc(-c1ccccc1)n2[C@H]1O[C@@H](CO)[C@@H](O)[C@H]1O
-29.9% | CCOC(=O)CSCC(=O)Nc1cc(C)ccc1C
? | Cc1nc2cnc(N3CCNCC3)nc2n(C2CC2)c1=O
? | CC(C)(C)OC(=O)NCCc1nnc(SCc2c(Cl)cccc2Cl)o1
-3.0% | CCc1nnc(NC(=O)CSc2nnc(CCc3nc4ccccc4[nH]3)n2C)s1
? | C[C@@H]1C(c2ccccc2)=NN(c2ccc(Br)cc2)[C@H]1C(=O)N1CCOC1=O
? | COc1ccc(C)cc1NC(=O)CCC(=O)Nc1ccc2nc(N3CCN(C)CC3)cc(C)c2c1
-3.1% | CCC(C)N1C(=O)c2ccccc2C1C(=O)NC1CCCCCC1 (configuration not stated)
-15.6% | Cc1cnc(C(=O)Nc2ccccc2-c2nnn(CC(=O)NC3CCCC3)n2)cn1
-14.6% | COc1c(Br)cc2c(C)c(C(=O)N3CCOCC3)oc2c1Br
-4.7% | CN(C)S(=O)(=O)c1ccc2oc(SCC(N)=O)nc2c1
-16.0%&-11.4% | Nc1cc([N+](=O)[O-])ccc1O
? | COCCNC(=S)Nc1ccc2nsnc2c1
-10.9% | COc1ccccc1COC(=O)Nc1c(C)nn(C)c1Cl
1.6% | COc1ccc(NC(=O)c2cncc(Br)c2)cc1S(=O)(=O)N1CCCCC1
-14.7% | CCCOc1cccc(C2/C(=C(/O)c3ccccc3)C(=O)C(=O)N2CCN(C)C)c1 (configuration not stated)
2.0% | O=C(CN1CCCN(Cc2ccc(F)cc2Cl)C1=O)NC1CCCCCCC1
? | O=C(Nc1ccc(Cl)cc1)[C@@H]1[C@@H]2C(=O)N(c3ccc4ccccc4c3)C(=O)[C@@H]2[C@H]2C=CC=NN21
-3.3% | CC1CC(=O)Nc2ccccc2N1S(=O)(=O)c1cccc(Cl)c1 (configuration not stated)
-16.1% | CC1C(c2ccccc2)N(C)C(c2ccccc2)C(C)C1(O)C#Cc1ccccc1 (configuration not stated)

# Additional records
HPGD inh | Structure
-19.5% | COC(=O)c1nc(NC(=O)C(C)(C)C)n[nH]1
-16.4% | Cc1oc(-c2ccccc2F)nc1CS(=O)(=O)CC(=O)N1CCN(c2ccccc2)CC1
-20.3% | Cc1ccc(-c2noc(-c3ccccc3Br)n2)cc1
-28.7% | CN=c1sc2ccccc2n1CC(O)COc1ccccc1 (configuration not stated)
-5.4% | CSCCC1NC(=O)NC1=O (configuration not stated)
-10.0% | CCc1ccc(-c2csc(NC(=O)C3CC(=O)N(c4ccc5c(c4)OCCO5)C3)n2)cc1 (configuration not stated)
-12.1% | CSCCNC(C)=O
-18.6% | CCOc1ccccc1/C=C(/NC(=O)c1ccccc1)C(=O)NCC(=O)O
-9.5% | N#Cc1nc(-c2ccc(OCc3ccc(Cl)cc3)cc2)oc1NCc1cccnc1
-3.1% | C[C@H]1C[C@@H]2[C@@H]([C@@H](O)C[C@@]3(C)[C@H]2CC[C@]3(O)C(=O)CO)[C@@]2(C)C=CC(=O)C=C12
-2.1% | CCCC(=O)Nc1nnc(CC(=O)OCC)s1
-1.0% | O=C(Nc1nnc(-c2ccc(F)cc2)s1)C1CCN(S(=O)(=O)c2ccc(Cl)cc2)CC1
-10.1% | Cc1cc(C)c(S(=O)(=O)n2c([N+](=O)[O-])cnc2C)c(C)c1
-9.8% | O=C(CCN1CCN(CC(=O)Nc2ccccc2Cl)CC1)Nc1ccccc1F
-6.0% | CCCCC[C@H](O)/C=C/[C@H]1OC(O)C[C@H](O)[C@@H]1C/C=C\CCCC(=O)O (some centres not stated)
0.7% | CN(Cc1cc2ccccc2[nH]c1=O)S(=O)(=O)c1ccccc1
-17.6% | Cc1ccc(S(=O)(=O)N2CCN(CC(=O)NC(=O)NCc3ccccc3)CC2)cc1C
-3.6% | CCOC(=O)c1[nH]c(C)c(C(=O)Nc2ccc3c(c2)CCC3)c1C
-19.7% | O=C(COc1ccc(Cl)cc1)NCc1nnc(SCC(=O)Nc2ccccc2)o1
-23.3% | O=C(Nc1cccc(Cl)c1N1CCCC1)c1cccc(-c2cc3ccccc3oc2=O)c1
-6.3% | O=C(C1CCCCC1)N1CCN(c2ncccn2)CC1
-5.9% | CCCCCOC(=O)C1=C(C)Nc2nnnn2C1c1ccccc1Cl (configuration not stated)
? | Cc1ccc(NC(=O)CSC2=C(C#N)C(c3ccco3)C3=C(CCCC3=O)N2)cc1 (configuration not stated)
-12.3% | O=C(CCNc1cccc(Cl)c1)c1cccs1
-10.3% | CN(Cc1nc(-c2ccncc2)no1)S(=O)(=O)c1ccc(Cl)cc1

# Further compounds follow.
HPGD inh | Structure
? | O=C(O)c1ccc(CNc2ccccc2C(=O)O)cc1
-18.2% | Nc1c(-c2ccc(Cl)cc2)cnn1-c1cccc(C(F)(F)F)c1
? | CC(=O)Nc1ccc(NC(=O)c2sc3nc4c(c(-c5ccc(C)cc5)c3c2N)CCC4)cc1
-24.5% | CC(C)C(=O)c1cc2c(cc1NC(=O)c1ccccc1)OCCO2
0.4% | CNCCCOc1cccc(OC(C)C)c1
-16.2% | O=C(NCc1nc2ccccc2[nH]1)c1ccc(S(=O)(=O)N2CCOCC2)cc1
-5.9% | C=CCn1c(COc2cccc(C)c2)nnc1SCn1nnc2ccccc2c1=O
-9.1% | N=C(N)SCc1nc(-c2ccc(Cl)cc2)no1
-17.7% | Cc1ccccc1Cn1cc(NC(=O)CSc2nc3c(c(C(F)(F)F)n2)CCc2ccccc2-3)cn1
-12.2% | Cc1cc(C)n(C(=O)COc2c(C)cccc2C)n1
-7.5% | CS(=O)(=O)N(CC(=O)O)c1ccccc1
? | COc1ccc(/C=C(/C#N)C(=O)NC2CCCCC2)cc1Br
-0.6% | CC1CCN(C(=O)Cn2c(=O)oc3ccccc32)CC1
? | O=C1c2ccccc2NC2(CCCCC2)N1N=C1CCCCC1
-15.0% | CCNC(=O)CSc1nc2cc([N+](=O)[O-])ccc2n1-c1cccc(C(F)(F)F)c1
? | Cc1ccc(-c2ccc(CCC(=O)O)n2Cc2ccco2)cc1
-16.1% | CCC/C=C(\CCC)C(NC(=O)c1ccc(C(F)(F)F)cc1)c1ccccc1 (configuration not stated)
-19.2% | N#C/C(=C\c1cccn1-c1ccccc1)C(=O)NC1CCCCC1
15.8µM* | CCOc1cccc(C(=O)c2ccc(O)c(O)c2O)c1
11.2µM* | Cc1ccc(-n2c(N)c(C(=O)N3CCN(C)CC3)sc2=S)cc1
-9.1% | Cc1cc(=O)[nH]c(N/N=C/c2ccc(C)o2)n1
-20.3% | Cc1nn(Cc2ccc(F)cc2)c(C)c1NC(=O)c1noc2c1CCc1ccccc1-2
-12.6% | CCc1ccc(Nc2nnc(SCC(=O)NCCN3C(=O)CSC3=O)s2)cc1
? | CCOc1ccc(N=c2oc3cc(O)ccc3cc2C(=O)NCC2CCCO2)cc1 (configuration not stated)
-7.2% | COc1ccc(N2CCN(CCNC(=O)c3nnc(Cc4c(F)cccc4Cl)o3)CC2)cc1

# (cont.)
HPGD inh | Structure
-2.9% | NC(=S)Nc1cccc2cnccc12
-29.2% | Cc1ccc(C(=O)CCC2CCCCC2=O)cc1 (configuration not stated)
? | COc1c(C)c2c(c(O)c1CC=C(C)CCC(=O)OCCN1CCOCC1)C(=O)OC2
-6.7% | O=C(Nc1ccccc1)c1cc2ccccc2[nH]1
6.5% | COc1ccc(CCC(=O)Nc2ccc(Br)cn2)cc1
? | O=C(Nc1ccc(Cl)cc1)N1CCSc2ccccc21
-2.3% | CC1CCCCC1NC(=O)Cn1cnc2ccccc2c1=O (configuration not stated)
-7.8% | CC1(OC(=O)c2cccs2)C(=O)C=C2C=C3CCCN3C=C2C1=O (configuration not stated)
-5.3% | COc1ccc(CCN(C(=O)COc2ccccc2)c2nc(-c3ccccc3)cs2)cc1OC
-8.8% | COc1ccc([N+](=O)[O-])cc1NC(=O)Cc1ccccc1Cl
-29.1% | Cc1ccc(S(=O)(=O)CCSc2nc(C)cc(C)c2C#N)cc1
? | CCCCN(CCCC)S(=O)(=O)c1ccc(NC(=O)Cc2cccs2)cc1
-12.3% | Cn1c(COc2ccc(Br)cc2)nnc1SC1CCc2ccccc2C1=O (configuration not stated)
-4.2% | Cc1nn(C)cc1CNC(=O)c1cccc(F)c1
-1.9% | Cc1cc(N2CCN(C)CC2)n2nc(-c3ccc(Cl)cc3)nc2n1
-30.0% | COc1cccc(CSc2nnc(-c3ccco3)n2C)c1
-5.3% | CCC(C)(C)n1nnnc1C(c1cc2cc(C)ccc2[nH]c1=O)N1CCCC1 (configuration not stated)
5.4% | Cc1c[n+]([O-])n(-c2ccc(C(=O)O)cc2)n1
-10.2% | CCOC(=O)C1=C(C)NC(=O)NC1c1ccc(F)cc1 (configuration not stated)
-14.2% | CC(=O)c1ccc(NC(=O)c2ccc(S(=O)(=O)N3CCCC3)cc2)cc1
-6.1%&-12.1%&-15.7% | Cc1nnc(SCC2=C(C(=O)O)N3C(=O)[C@@H](NC(=O)Cn4cnnn4)[C@H]3SC2)s1
-27.9% | CC(C)OC(=O)C(C(=O)C(F)(F)F)c1cc(NS(=O)(=O)c2ccc3ccccc3c2)c2ccccc2c1O (configuration not stated)
-11.2% | COC(=O)c1nnn(-c2nonc2N)c1CSc1nc2ccccc2o1
? | CCOc1ccc2nc(NC(=O)c3ccc(OCC4CCCO4)cc3)sc2c1 (configuration not stated)
-3.8% | CCC(=O)NC(Nc1ncc(C)s1)(C(=O)OC)C(F)(F)F (configuration not stated)

# Four records picked at random from the list so far:
HPGD inh | Structure
-29.2% | Cc1ccc(C(=O)CCC2CCCCC2=O)cc1 (configuration not stated)
-12.2% | Cc1cc(C)n(C(=O)COc2c(C)cccc2C)n1
-5.3% | CCC(C)(C)n1nnnc1C(c1cc2cc(C)ccc2[nH]c1=O)N1CCCC1 (configuration not stated)
-19.5% | COC(=O)c1nc(NC(=O)C(C)(C)C)n[nH]1

# (listing goes on)
HPGD inh | Structure
-4.5% | COc1ccc(CNC(N)=O)cc1OC
-1.9% | COc1ccc2ccccc2c1/C=C\C(=O)c1ccccc1
-23.3% | CN(c1cccc(NC(=O)c2ccc(Cl)c(S(=O)(=O)Nc3ccccc3)c2)c1)S(C)(=O)=O
-11.5% | COc1ccc(CNC(=O)c2csc(Cc3ccc(Cl)cc3)n2)cc1
? | CCOC(=O)N1CCN(c2c(-c3ccccc3)c3cc(Cl)ccc3[nH]c2=O)CC1
1.1% | Cc1cccc(OCC(=O)N(C)CCc2ccccn2)c1
-19.7% | CCOC(=O)COc1c(Br)cc(C2NC(=O)NC(C)=C2C(C)=O)cc1OC (configuration not stated)
-14.0% | COC(=O)c1sccc1NC(=O)CCC1CCCCC1
1.0% | Cc1ccccc1CS(=O)(=O)Cc1ccc(C(=O)NCc2ccco2)o1
-4.9% | CC(CN1CCOCC1)(NS(=O)(=O)c1ccccc1)c1ccccc1 (configuration not stated)
-4.5% | OC(C#CCN1CCOCC1)(c1ccccc1)C1CC1 (configuration not stated)
-6.3% | CCCNC(=S)Nc1ccc(Cl)cc1C
-9.7% | CC(C)n1nc(C(=O)OCn2nnc3ccccc3c2=O)c2ccccc2c1=O
-7.1% | O=C(O)CCCNS(=O)(=O)c1ccc(F)cc1
-13.1% | CCOc1ccc(C(=O)Nc2cccc(-c3nc4cccnc4o3)c2)cc1Cl
-3.2% | O=C(CSc1ccccc1)NCc1cccnc1
-18.4% | COc1ccc(C2C(C(=O)N3CCN(c4ccccc4)CC3)c3ccccc3C(=O)N2C)cc1 (configuration not stated)
-22.3% | CSc1nnc(-c2ccc(NC(=O)CCc3ccccc3)cc2)n1C
? | COc1ccccc1Oc1coc2c(CN3CCN(C)CC3)c(O)ccc2c1=O
-28.7% | N#Cc1c2n(c3c(-c4ccccc4)ncnc13)CCC2
-11.5% | CC(C)(C)C1CCc2onc(C(=O)Nc3cccc(O)c3)c2C1 (configuration not stated)
25.1µM* | O=C(CSc1nc2ccccc2o1)N1CCCC1
2.8% | COC(=O)CCCC1=CC2=CC(=O)C(C)(OC(=O)c3cccs3)C(=O)C2=CN1C1CC1 (configuration not stated)
-24.8% | COC(=O)C(C)Sc1nc2c(c(=O)n(C)c(=O)n2C)n1Cc1cccc(C)c1 (configuration not stated)
-15.4% | O=C(CN1CCN(c2nc(-c3ccc(F)cc3)cs2)CC1)NCc1ccc2c(c1)OCO2

# (listing goes on)
HPGD inh | Structure
0.0% | COc1ccc(NC(=O)N2CCC3(CC2)CCN(C(=O)c2cccn2C)CC3)cc1
? | Cc1ccccc1-n1cc(C(=O)c2cc(Cl)ccc2O)cc(C#N)c1=O
-2.2% | CC1CC(c2ccccc2)n2nc(N3C(=O)c4ccccc4C3=O)nc2N1 (configuration not stated)
-13.9% | O=c1c2ccccc2nnn1CSc1nc2ccccc2c(=O)n1Cc1ccco1
-14.0% | COc1cccc(/C=N/NC(=O)C(=O)Nc2ccccc2OC(F)(F)C(F)F)c1
-3.0% | CCOCCn1c(CN2CCN(c3cccc(Cl)c3)CC2)nc2c1c(=O)n(C)c(=O)n2C
? | CCOC(=O)N1CCC(NC(=O)c2ccc3c(c2)sc2nc(-c4cccc(OC)c4)cn23)CC1
